Sfp PPTase inh: inhibitors of Bacillus subtilis Sfp phosphopantetheinyl transferase; Q9F4F7; Potency, µM, for the others: max response, negative = inhibition, usual class: inhibitors; Biochemical Sfp PPTase activity, qHTS; actives 3.5% (n = 310,000); AID 1490; active = well fitted inhibition curve with a large enough effect; inconclusive = small, poorly fitted or top-dose-only effect, or another doubt; inactive = no such curve, though single readings can be large or run the other way;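 also: the enzyme is Sfp with the accession as filed and its product quenches rhodamine fluorescence; potency is read from the fitted curve at half-maximal effect; 0% = enzyme reaction without inhibitor and -100% = no enzyme wells; top concentration of the series not given in the record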
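Sfp 15 nM + cpd, 15 min RT; start w/ rhodamine-CoA 5 uM, BHQ-2-YbbR 12.5 uM (final); 50 mM Hepes pH 7.6, 10 mM MgCl2, 0.01% NP-40, 0.01% BSA; read 525/598 nm at 0 and 30 min.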
TRPV1 PAM: human TRPV1 potentiation; TRPV1-expressing cells, Fluo-8 calcium influx, capsaicin EC20 potentiation; host cell line not named in the record; control for the full effect not named in the record; potentiation, % at 8.33 µM; Q8NER1; actives 0.02% (n = 320,000); AID 540277; active means potentiation above 80%; inconclusive means 30% to 80%; inactive means below 30%; also: 0% is about no effect
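Fluo-8 calcium influx in TRPV1-expressing cells, kinetic read (ex 480/em 520 nm). Compound added and read 3 min for agonist activity, followed by capsaicin at EC20 final and 2 min further read for enhancement.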
D2 PAM: human D2 receptor positive allosteric modulation | DiscoveRx D2 beta-arrestin cells, luminescence, 90 min; 100% = 57 uM dopamine signal | actives 0.23% (n = 360,000) | P14416 | potentiation, % (test concentration not listed) | AID 624464; active = potentiation of 50% or more; inconclusive = 30% to 50%; inactive = 30% or less;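 also: compound concentration not given in the record; tested on top of an EC20 dose of dopamine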
Target sequence (P14416 whole entry, looked up): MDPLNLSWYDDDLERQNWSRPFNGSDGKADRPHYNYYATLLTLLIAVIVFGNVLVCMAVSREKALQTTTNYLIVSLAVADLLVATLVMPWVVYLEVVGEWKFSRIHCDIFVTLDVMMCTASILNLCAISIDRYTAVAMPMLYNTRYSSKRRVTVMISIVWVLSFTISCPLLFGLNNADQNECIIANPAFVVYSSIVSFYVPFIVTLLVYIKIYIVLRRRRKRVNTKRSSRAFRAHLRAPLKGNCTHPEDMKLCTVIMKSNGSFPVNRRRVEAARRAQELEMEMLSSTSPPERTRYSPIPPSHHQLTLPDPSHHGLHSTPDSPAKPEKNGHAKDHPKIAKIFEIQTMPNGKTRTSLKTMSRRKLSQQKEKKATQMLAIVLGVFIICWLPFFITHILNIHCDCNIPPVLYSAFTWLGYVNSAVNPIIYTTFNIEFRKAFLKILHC
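PathHunter beta-arrestin assay in DiscoveRx D2 cells. Compounds were added with an EC20 of dopamine (50 nM final) for 90 min at 37 deg C. Luminescence was read 1 h after detection reagent, with 57 uM dopamine as the EC100 control.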
ClpP mod: qHTS Assay for Activators of ClpP. ATP-dependent Clp protease proteolytic subunit (Bacillus subtilis (strain 168)), P80244. purified B. subtilis ClpP, FRET peptide cleavage, 20 min. Potency, µM (top dose mostly 57.5 µM), without a hit: top-dose activity change, negative = active. actives 1.9% (n = 340,000). AID 651965, 2013; active = well fitted falling curve with a large enough effect; inconclusive = small, poorly fitted or top-dose-only effect; inactive = no such curve, though single readings can be large or run the other way; also: potency is read from the fitted curve at half-maximal effect; the source files actives as falling curves though it sought activators and does not explain the sign; nearly all actives have a fitted effect of over 65% in size; many hits overshoot -100%
Target sequence (P80244 whole entry, looked up): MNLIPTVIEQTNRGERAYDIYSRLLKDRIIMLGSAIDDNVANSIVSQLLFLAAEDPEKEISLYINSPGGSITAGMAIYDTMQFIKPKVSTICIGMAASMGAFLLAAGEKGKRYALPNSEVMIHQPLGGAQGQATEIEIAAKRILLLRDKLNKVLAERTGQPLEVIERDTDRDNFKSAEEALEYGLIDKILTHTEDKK
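FRET quenching reversal measured ClpP activation: 10 microg/mL B. subtilis ClpP at pH 8 with the FRET-FV decapeptide, read at 430 nm after 320 nm excitation. The 20-min minus 0-min signal was scaled between DMSO/no-enzyme wells and ADEP (5.8 microM final).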
Menin-MLL FL inh: displaces fluorescein MLL peptide from human menin | FP activity change, % at 61.4 µM | Fluorescence polarization, fluorescein-MLL peptide displacement from menin | AID 1766 | 290,000 tested, under 10 active; inconclusive = falling polarisation curve, or a change in total fluorescence; inactive = total fluorescence flat and polarisation flat or rising; no compound was filed as active; the % refers to the polarisation; negative = inhibition;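 also: % of control where 0% means no effect; inhibitors lower the polarisation; unlabelled MLL peptide was the positive control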
gsp ag: agonists of gsp mutant (McCune-Albright syndrome) | AID 624287 | actives 0.13% (n = 340,000) | gsp mutant cells, cAMP HTRF, 30 min; control for the full effect not named in the record | Potency, µM (titrated, usually from 76.9 µM), without a hit: at the top dose activation (cAMP increase), most hits filed as activators; active = well fitted activation curve with a large enough effect; inconclusive = small, poorly fitted or top-dose-only effect, or another doubt; inactive = no such curve, though single readings can be large or run the other way; cell line not stated here;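 also: phosphodiesterase inhibitor Ro 20-1724 added with compounds to block cAMP breakdown; potency is read from the fitted curve at half-maximal effect; nearly all actives have a fitted effect of over 60% in size; about a fifth of the inactives were tested at one dose only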
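Cells stably selected in G418 were plated at 2000/well, grown 16-24 hr, then given compounds in DMSO with the PDE inhibitor […] (300 uM solution added) for 30 min at 37C; cAMP was read by HTRF.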
gsp antag: gsp mutant antagonism; gsp-mutant cells, cAMP HTRF, 30 min; control for the full effect not named in the record; Potency, µM (highest dose often 76.9 µM), for inactives: top-dose activity change, negative = inhibition, usual class: inhibitors; actives 0.4% (n = 340,000); AID 624288; active = falling curve of any shape with a large fitted effect; inconclusive = falling curve, mostly with a smaller effect; inactive = flat or rising curve; cell line not stated here;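 also: intracellular cAMP measured with PDE inhibitor Ro 20-1724 present during compound exposure; potency is read from the fitted curve at half-maximal effect; % is scaled to controls: 0 for no effect and ±100 for the full control effect; nearly all actives have a fitted effect of over 65% in size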
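HTRF cAMP read-out (cAMP-d2 plus anti-cAMP antibody-K in lysis buffer, 30 min RT). Before lysis, cells are exposed to compounds with […] for 30 min at 37C in DPBS containing Ca/Mg, BSA and Tween 20.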
* = called active by the depositor; ? = inconclusive; . = not tested or not shown; [ ] = another dose, or the depositor's remark.

The line under a structure holds: Sfp PPTase inh	TRPV1 PAM	D2 PAM	ClpP mod	Menin-MLL FL inh	gsp ag	gsp antag
- CCCOc1cc(C)c(S(=O)(=O)NCCOC)cc1C
  -4%	-2	-1	-2.1%	2.9	-14%	-14%
- CCCOc1ccc(NC(=O)C2CC(=O)N3CCCN=C3S2)cc1 (stereo not given)
  -7%	-3	-13	0.6%	2.0	-6%	1%
- CCN1C(=O)N[C@@H](c2ccccc2)[C@H](C(=O)OC)[C@H]1C
  19%	.	-6	-5.9%	3.3[11.7 µM]	3%	-2%
- C[C@@H]1CCCCO[C@@H](CN(C)Cc2ccccc2)[C@@H](C)CN([C@H](C)CO)C(=O)c2cc(N(C)C)ccc2O1
  .	.	3	-4.1%	.	3%	.
- CCOC(=O)c1c(NC(=O)CSc2nnnn2-c2ccc3c(c2)OCCO3)sc(C)c1C
  4%	11	-8	-1.6%	6.4	-40%[inhibitor]	-19%
- c1ccc2c(c1)nc(N1CCOCC1)c1nncn12
  11%	?	-12	-1.3%	0.4	-2%	6%
- O=C(NN1CCCCC1)c1ccccc1
  6%	-22	2	-2.0%	7.7	-1%	11%
- CCN(CC)S(=O)(=O)c1ccc2oc(C(=O)NCC3COc4ccccc4O3)c(C)c2c1 (stereo not given)
  -6%	-8	3	-12%	-0.5	-36%[inhibitor]	-5%
- Cc1nnc2ccc(-c3cccc(NS(C)(=O)=O)c3)nn12
  -7%	29	0	.	-0.8	10%[15.4 µM]	-9%
- O=C(NNC(=O)c1cc(-c2ccncc2)nc2ccccc12)Nc1ccc(F)cc1
  7%	12	-9	1.1%	3.6	13%[15.4 µM]	5%
- C/C(=N\NC(=O)CCCC(=O)O)c1c(-c2ccccc2)c2cc(Cl)ccc2[nH]c1=O
  14%	-18	-7	.	7.4	32%[15.4 µM]	4%
- Cc1ccc(N=C(NOC(=O)c2ccccc2)c2nonc2N)c(C)c1
  ?	-6	95*	-3.8%	-2.0	-44%[inhibitor]	2%
- Cc1occc1C(=O)Nc1cccc(Cl)c1Cl
  -2%	-1	-10	-0.6%	-1.1	6%	-10%
- COc1ccc(Cn2c(=O)[nH]c3cc(C(=O)NCCCOC(C)C)ccc3c2=O)cc1
  2%	-2	1	.	-5.3	17%	-1%
- CCOc1ccc(NC(=O)c2cc(S(=O)(=O)N3CCOCC3)cn2C)cc1
  18%	16	-7	0.9%	-2.8	-55%[inhibitor]	1%
- COc1ccc(S(=O)(=O)NC2CCCC2)cc1NC(C)=O
  17%	-1	-9	-0.8%	.	11%	7%
- O=C(c1noc2c1CCc1ccccc1-2)N1CCc2ccccc2C1
  1µM*	-8	.	.	1.1	.	.
- CC(NC(=O)c1ccc(Br)o1)c1ccccc1 (stereo not given)
  11%	0	-9	.	3.2	-27%[15.4 µM]	-21%
- CSc1nc2ccc(NC(=O)c3c(F)cccc3F)cc2s1
  8%	-11	-8	3.8%	-1.7	-36%[inhibitor]	?
- O=C(c1cccc2ccccc12)C1CCCN(C(=O)C2CCOCC2)C1 (stereo not given)
  18%	-7	-12	-5.1%	0.5	-19%	2%

In the list so far, these have fluorine.
The line under a structure holds: Sfp PPTase inh	TRPV1 PAM	D2 PAM	ClpP mod	Menin-MLL FL inh	gsp ag	gsp antag
- O=C(NNC(=O)c1cc(-c2ccncc2)nc2ccccc12)Nc1ccc(F)cc1
  7%	12	-9	1.1%	3.6	13%[15.4 µM]	5%
- CSc1nc2ccc(NC(=O)c3c(F)cccc3F)cc2s1
  8%	-11	-8	3.8%	-1.7	-36%[inhibitor]	?

Next part:
The line under a structure holds: Sfp PPTase inh	TRPV1 PAM	D2 PAM	ClpP mod	Menin-MLL FL inh	gsp ag	gsp antag
- Cc1c(-c2ccc(Br)cc2)[n+](=O)c2c(n1[O-])CCCC2
  19%	8	-11	-1.5%	-8.4	22%	-1%
- Cc1ccc(SC(C)C(=O)Nc2ccccc2C(=O)N2CCOCC2)cc1 (stereo not given)
  14%	6	-10	2.1%	0.3	7%	6%
- COc1ccc(C(=O)NC(C(=O)NCC2CCCO2)C(C)C)cc1 (stereo not given)
  -4%	19	-3	.	-1.3	-21%[15.4 µM]	-1%
- O=S(=O)(c1cccs1)N1CCC2(CC1)OCCO2
  25%	0	-4	-1.5%	.	1%	9%
- COc1ccc(S(=O)(=O)Nc2ccc(S(=O)(=O)N3CCOCC3)cc2)cc1
  16%	.	15	-1.4%	0.1	-12%	2%
- CC(C)c1ccc(N(CC(=O)NCC2CCCO2)C(=O)Cn2nnc(-c3cccs3)n2)cc1 (stereo not given)
  1%	14	-6	-0.1%	0.1	?	-34%
- COC(=O)C1CCN(c2cc(=O)n(C3CCCCC3)c(=O)[nH]2)CC1
  14%	0	-2	-0.1%	3.0	-54%[inhibitor]	-11%
- COc1ccc(-c2csc(NC(=O)c3ccc(N4C(=O)CCC4=O)cc3)n2)cc1
  28%	-22	-7	69%	0.8	?	3%
- CCc1nc2ccccc2[nH]1
  11%	4	-4	-0.5%	1.2	-27%	1%
- Cc1ccc(OCC(=O)NNC(=O)CCc2ccccc2)cc1
  19%	16	-13	-0.1%	5.9	?	5%
- Cc1cc(C)nc(NS(=O)(=O)c2ccc(NC(=O)CCN3C(=O)c4ccccc4C3=O)cc2)n1
  -5%	13	-3	-4.0%	-5.6	?	-7%
- COc1ccc(NC(=O)C2CC(c3c(F)cccc3Cl)=NO2)cc1OC (stereo not given)
  15%	?	-1	-0.8%	3.8	?	-9%
- Cc1cc([N+](=O)[O-])ccc1NC(=O)c1ccc(NC(=O)C(C)C)cc1
  6%	-17	0	.	0.7	?	-17%
- CC1=C(C)C(=O)N(c2ccccn2)C1=O
  18%	-4	0	-2.9%	1.0	-41%[inhibitor]	6%
- COc1ccc(-n2c(=O)[nH]cc(C(=O)Nc3ccc4c(c3)OCCO4)c2=O)cc1
  4%	-5	12	-0.6%	0.9	0%	2%
- Cc1cc(-c2nnc(-c3cc4ccccc4oc3=O)o2)c(C)n1-c1ccccc1
  -10%	-12	-5	-6.1%	0.2	-3%	-3%
- CC(C)=N/N=C(\c1cccc([N+](=O)[O-])c1)C12CN3CN(CN(C3)C1)C2
  10%	-5	-22	3.5%	4.0	10%[15.4 µM]	0%
- CCOC(=O)Nc1ccc2c(CN3CCN(S(=O)(=O)c4ccc(C(C)C)cc4)CC3)cc(=O)oc2c1
  .	-3	-3	-6.0%	.	-33%[inhibitor]	-1%
- Cc1cc(C(F)(F)F)nn1CC(=O)N(C)C1CCCCC1
  .	.	-6	-1.4%	.	-21%	13%
- CCCCC(CC)CNC(=O)c1cc2ccccc2c(=O)o1 (stereo not given)
  -3%	-13	-6	-1.4%	2.7	7%[15.4 µM]	6%

Entries listed so far that contain a thiophene ring, fused or not:
The line under a structure holds: Sfp PPTase inh	TRPV1 PAM	D2 PAM	ClpP mod	Menin-MLL FL inh	gsp ag	gsp antag
- CCOC(=O)c1c(NC(=O)CSc2nnnn2-c2ccc3c(c2)OCCO3)sc(C)c1C
  4%	11	-8	-1.6%	6.4	-40%[inhibitor]	-19%
- O=S(=O)(c1cccs1)N1CCC2(CC1)OCCO2
  25%	0	-4	-1.5%	.	1%	9%
- CC(C)c1ccc(N(CC(=O)NCC2CCCO2)C(=O)Cn2nnc(-c3cccs3)n2)cc1 (stereo not given)
  1%	14	-6	-0.1%	0.1	?	-34%

The list goes on:
The line under a structure holds: Sfp PPTase inh	TRPV1 PAM	D2 PAM	ClpP mod	Menin-MLL FL inh	gsp ag	gsp antag
- CN(C)CCCN(C(=O)c1sc2ccccc2c1Cl)c1nc2c(F)cccc2s1
  50µM*	-10	-27	0.9%	0.3	29%[15.4 µM]	26%
- COc1ccc(OCC(=O)N2CCN(c3cccc(Cl)c3)CC2)cc1
  6%	-12	-13	?	1.9	11%[15.4 µM]	-15%
- O=C(O)CCCCCCCCCCCNC(=O)NC12CC3CC(CC(C3)C1)C2
  .	7	-8	-1.0%	.	.	11%
- CCOc1ccccc1NC(=O)c1sc2nc(C)nc(N3CCOCC3)c2c1C
  17%	-13	-6	0.0%	1.2	0%[15.4 µM]	0%
- CCC(CC)C(=O)Nc1cccc(C(=O)Nc2nccs2)c1
  25%	-1	-5	-1.1%	1.8	-6%	-8%
- Cc1cc(-c2ccccc2)nc(N(C)NC(=O)c2ccc(Cl)cc2)c1S(C)(=O)=O
  4%	9	-12	44%	0.1	17%	-8%
- COc1ccc(-n2cc([N+](=O)[O-])c(=O)c3ccc(Cl)cc32)cc1
  .	.	-6	.	.	13%[15.4 µM]	-5%
- O=C(Cn1c(=O)n2ncnc2c2c3c(sc21)CCCC3)c1ccccc1
  -22%	-1	-7	-0.1%	1.3	-15%	-1%
- CC(=O)N1CCN(C(=S)NC(=O)C23CC4CC(CC(C4)C2)C3)CC1
  5%	-8	-13	-1.2%	-1.1	20%	4%
- COC(=O)CCn1c(C)cc(C(=O)COc2ccccc2C(N)=O)c1C
  -5%	-4	3	.	-2.7	3%[15.4 µM]	?
- COC(=O)/C=C/C(=O)N1CCN(c2ccccc2)CC1
  -7%	-14	1	1.6%	4.7	-32%	21%
- CCC1CCCCN1CCCNC(=O)c1ccc(/C=C2/Sc3ccccc3NC2=O)cc1 (stereo not given)
  -15%	-13	0	0.4%	.	2%	2%
- CCN(CC)S(=O)(=O)c1ccc(N2CCN(c3ccccc3OC)CC2)c(N)c1
  5%	10	-8	.	1.2	1%	?
- COc1ccc(-c2cc(C(=O)O)c(C)o2)cc1OC
  ?	9	-8	-27%	3.3	0%	-17%

Bioassay records: PubChem BioAssay, National Center for Advancing Translational Sciences (NCATS)
